CDC25B CDK2 inh: human CDC25B-CDK2/CyclinA binding inhibition | P30305+P24941 | HTRF CDC25B-CDK2/CyclinA binding, anti-His/anti-Flag; active compounds read high | z-score (test concentration not listed) | actives 0.72% (n = 94,000);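 note: score is relative to mean and SD of negative controls; strong numbers were not always called active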
TAR Tat displ: HIV-1 TAR-Tat binding disruption; z-score (concentration not given with the values); actives 0.6% (n = 100,000); HIV-1 TAR RNA, Tat peptide displacement FRET; active compounds read high;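 note: score is relative to mean and SD of negative controls; some compounds called inactive have numbers as strong as hits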
Numbers without * were called inactive; . = no result given.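 Rule for the calls: active = z-score from 3 up in half or more of its runs; inactive = the rest.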

Value order: CDC25B CDK2 inh | TAR Tat displ
C=CCn1c(=S)[nH]c2scc(-c3cccs3)c2c1=O
    -7.6 | .
O=C(NC1CCCc2ccccc21)c1cccc(NC2=NC3CS(=O)(=O)CC3S2)c1 (stereo not drawn)
    -1.5 | 1.3
O=C(NCCCn1ccnc1)c1cc2nc(-c3ccc(Br)cc3)cc(C(F)(F)F)n2n1
    -0.93 | 3.9
Cc1ccc(Oc2c(C(F)(F)F)oc3c(CN4CCN(C)CC4)c(O)ccc3c2=O)cc1
    -0.89 | -1.1
CNC(=O)c1cc2cc(Cl)ccc2oc1=O
    3 | .
CC1=C(C(=O)NCCN2CCOCC2)C2(CCN(S(C)(=O)=O)CC2)OC1=O
    . | 0.19
CCCC1N=C2c3ccccc3N=C(SCC(=O)Nc3ccc(F)cc3F)N2C1=O (stereo not drawn)
    . | 1.3
COc1ccc(C2Oc3ccccc3C3=C2C(c2cccs2)n2ncnc2N3)cc1 (stereo not drawn)
    -2.1 | .
CC(=O)/C(N=Nc1ccccc1Oc1ccc(Cl)cc1Cl)=C(\C)O
    -2.2 | .
COc1ccc(OCc2nc(CSc3nnc(C(F)(F)F)n3C)cs2)cc1
    -0.94 | .
Cc1c(C(=O)NC(C)C)oc2ccc(S(=O)(=O)N3CCC4(CC3)OCCO4)cc12
    0.3 | .
Cc1ccc2nc(NC3=NCN(Cc4ccccc4Cl)CN3)nc(C)c2c1
    1.6 | -0.24
CC(C)(C)NS(=O)(=O)c1ccc2[nH]c3c(c2c1)CCCCC3
    . | 2.1
CN1CCN(c2nc(N3CCN(C(=O)c4ccco4)CC3)nc3c2cnn3C)CC1
    . | 1.4
CC(C)(C)OC(=O)N1CCC(CNC(=O)c2ccc(F)cc2F)CC1
    0.04 | .
CCS(=O)(=O)c1ccccc1C(=O)Nc1sc2c(c1C(N)=O)CCC2
    . | -0.7
CC(=O)Nc1ccc(S(=O)(=O)Oc2cccc(/C=C3\SC(=S)NC3=O)c2)cc1
    -3.9 | .
O=C(Cn1ncc2c1-c1ccccc1OC2)Nc1nc2ccccc2s1
    -1.6 | .
CCC(O)c1nc2ccccc2n1CCOc1cc(C)cc(C)c1 (stereo not drawn)
    2.2 | 0.5
CN(C)/C=C(\C#N)C(=O)C1CC1
    -0.29 | .

Single records, from the list above. Screens in order: CDC25B CDK2 inh	TAR Tat displ
CC(=O)/C(N=Nc1ccccc1Oc1ccc(Cl)cc1Cl)=C(\C)O reads -2.2	.
CCC(O)c1nc2ccccc2n1CCOc1cc(C)cc(C)c1 (stereo not drawn) reads 2.2	0.5
COc1ccc(C2Oc3ccccc3C3=C2C(c2cccs2)n2ncnc2N3)cc1 (stereo not drawn) reads -2.1	.
Cc1ccc(Oc2c(C(F)(F)F)oc3c(CN4CCN(C)CC4)c(O)ccc3c2=O)cc1 reads -0.89	-1.1

Back to the main list; the 2 compounds before the break are reprinted first.
Value order: CDC25B CDK2 inh | TAR Tat displ
CCC(O)c1nc2ccccc2n1CCOc1cc(C)cc(C)c1 (stereo not drawn)
    2.2 | 0.5
CN(C)/C=C(\C#N)C(=O)C1CC1
    -0.29 | .
O=C(NCc1ccco1)C1Nc2ccccc2S(=O)(=O)N1 (stereo not drawn)
    . | -0.17
CCOc1cc(C2NC(=O)NC(O)(C(F)(F)F)C2C(=O)c2ccc(OC)cc2)ccc1O (stereo not drawn)
    -1.3 | .
O=S1(=O)N=C(c2cccc(F)c2)Nc2ccc(S(=O)(=O)N3CCOCC3)cc21
    . | 1.1
CCN1CCCC1CNC(=O)Cn1cnc(S(=O)(=O)N2CCCCC2)c1 (stereo not drawn)
    . | -0.47
CCn1c2c(c(=O)[nH]c1=O)C(c1cccc(F)c1)C1=C(N2)c2ccccc2C1=O (stereo not drawn)
    -0.87 | -0.54
CCOc1ccc(Cc2nnc(SCC(=O)c3ccc(Cl)cc3)o2)cc1
    -0.81 | 1.4
CCCS(=O)(=O)N1CCc2cc(-c3ccsc3)ccc21
    -1.5 | 0.74
CC1(C)Cc2nc3oc4c(SCCc5ccccc5)ncnc4c3cc2CO1
    . | 1.7
CC(=O)c1c(C)oc2ccc(N(C(C)=O)S(=O)(=O)c3ccc(Br)cc3)cc12
    -2.9 | .
Oc1ccc(N=Nc2ccccc2)c(O)c1
    -0.33 | .
Cn1c(C(=O)N2CCC(C(=O)NCCc3ccc(S(N)(=O)=O)cc3)CC2)cc2sccc21
    -3.1 | .
CCC(C)(C)NS(=O)(=O)c1cc(-c2onc(C)c2C)ccc1C
    . | 1.5
Cc1ccc(C(=O)CC2(O)C(=O)Nc3ccc(C)cc32)cc1 (stereo not drawn)
    0.29 | .
C=CCNC(=O)c1cnn(C)c1-n1cccc1
    -1.8 | .
COc1ccc(/C=C/c2nn3c(Cc4ccc(OC)cc4)nnc3s2)cc1
    -0.98 | -0.37
CSc1cccc(NC(=O)NCc2cc(C)n(-c3ccc(F)cc3)c2C)c1
    . | 0.92
Cn1c(=O)c2c(nc(NCc3ccccc3)n2Cc2cccc3ccccc23)n(C)c1=O
    -0.44 | .
CC1=CC(C)(C)Nc2ccc(OC(=O)c3cccc(Br)c3)cc21
    -3.6 | 2.5
O=C(CSCc1cccc2ccccc12)NNC(=S)NC1CCCCC1
    -2 | .
CN1CCN(Cc2c(O)ccc3c(=O)c(-c4ccccc4)coc23)CC1
    -2.4 | 1

Next structures
Value order: CDC25B CDK2 inh | TAR Tat displ
CCOc1ccc2ncc(S(=O)(=O)c3ccc(OC)cc3)c(N3CCCCC3)c2c1
    -0.06 | -0.16
CCn1c(=O)cc(N2CCC(C)CC2)[nH]c1=O
    . | 1.3
CC(=O)N1CC=C(c2c(C)noc2N)CC1
    -0.01 | 0.2
N#CCc1c(Cl)sc2ccc(Cl)cc12
    -1.6 | .
CCOC(=O)c1[nH]c(C)c(C(C)=O)c1-c1ccccc1
    -0.74 | .
CN(C)c1ccc(NC(=O)Nc2ccc(OCc3ccccc3)cc2)cc1
    -1.2 | .
O=C(CCC1CCCCC1)Nc1nc2ccccc2s1
    -1.4 | .
c1ccc(CNCCc2csc3c2CCCC3)cc1
    . | 1.5
CCCc1cc(=O)[nH]c(Nc2cccc(O)c2)n1
    -0.72 | 0.43
C=CCN1C(=O)C2(/C(=C(/O)c3ccc4c(c3)CC(C)O4)C(=O)C(=O)N2CCCOC)c2ccccc21 (stereo not drawn)
    0.82 | 0.48
CC(C)Cn1cc(NC(=O)Nc2cccnc2)c2ccccc2c1=O
    . | 0.49
Cc1ccc(Nc2ncnc3sc(C)cc23)cc1
    -0.73 | .
NC(=O)c1nc(-c2ccc(OCc3ccccc3)cc2)nc2c1[nH]c(=O)n2-c1ccc2c(c1)OCO2
    . | 0.08
O=C(NNc1cccc(Cl)c1)c1cccnc1Oc1ccccc1
    -0.75 | .
COc1ccc2scc(N3CCN(C(C)=O)CC3)c(=O)c2c1
    . | -0.1
CN1CCN(CC(=O)Nc2c3c(nc4ccccc24)N(c2cccc(Cl)c2)CC3)CC1
    -1 | .
Nc1c(C(=O)Nc2ccc(Cl)cc2)sc2nc3c(cc12)CCC3
    -1 | 0.07
CNc1scnc1S(=O)(=O)c1ccc(C)cc1
    -1.2 | .
Cc1cc2ncn(CCOc3ccccc3)c2cc1C
    -1.9 | -0.01
O=C1N(Cc2ccccc2F)c2ccccc2S(=O)(=O)N1Cc1ccccc1
    . | 3.2

Further structures:
Value order: CDC25B CDK2 inh | TAR Tat displ
CN(C)CCCNc1cc(N(C)CCO)c2noc3c2c1C(=O)c1ccccc1-3
    -4 | 7*
O=C(Nc1nc(-c2cc([N+](=O)[O-])cs2)cs1)c1ccoc1
    . | 1.2
CCSC1=N/C(=C\c2cc(Br)c(OC(C)=O)c(OC)c2)C(=O)S1
    0.64 | -2.5
O=C1CCC([N+](=O)[O-])C(c2ccccc2Cl)N1 (stereo not drawn)
    0.66 | -0.3
CC1=C(C(=O)OCC2CCCO2)C(c2ccccc2Br)C2=C(CC(C)(C)CC2=O)N1 (stereo not drawn)
    -1.1 | 0.52
COc1ccc2nnc(-c3ccccc3)n2n1
    -1.6 | .
O=C(/C=C/c1ccccc1)NC(=S)Nc1ccc2oc(-c3ccncc3)nc2c1
    -2.7 | .
Cc1onc(-c2c(Cl)cccc2Cl)c1C(=O)ONC(=O)C(C)(C)C
    -1.6 | .
CC(O)c1nc2ccccc2n1Cc1cccc(Cl)c1 (stereo not drawn)
    -1.3 | 0.66
COc1cc(OC)cc(-c2nnc(Cc3ccc(F)cc3Cl)o2)c1
    -1.1 | 0.69
COCCOC(=O)c1nccnc1C(=O)Nc1ccc2c(c1)OCO2
    -0.31 | .
O=C(Nc1ccc2nc(SCC(=O)N3CCc4ccccc43)sc2c1)c1ccco1
    -2.2 | -0.18
Clc1cccc(-n2ncc3c(NC4CCCC4)ncnc32)c1
    . | 1.8
Cc1cc(N2CCOCC2)nc(-n2cnc(SCc3ccccc3)n2)n1
    -0.48 | 0.83
O=C(Nc1nccs1)C1CCCN(S(=O)(=O)c2cccc3cccnc23)C1 (stereo not drawn)
    -0.4 | .
CC(C)CNC(=O)Cn1cnc2c1c(=O)n(C)c(=O)n2C
    -0.88 | 0.08
O=C1NC(c2ccccc2)Nc2sc3c(c21)CCN(Cc1ccccc1)C3 (stereo not drawn)
    -0.72 | -1.5
Cn1c(=O)n(C)c2cc(CNCCSc3nnnn3-c3ccccc3)ccc21
    -0.46 | 1.4
Cn1c(=O)c2c(nc(N3CCOCC3)n2Cc2ccc(Br)cc2)n(C)c1=O
    0.03 | 0.79
CSc1ncc(C(=O)NCc2ccc3c(c2)OCO3)c(-c2ccccc2)n1
    . | 1.7

(cont.)
Value order: CDC25B CDK2 inh | TAR Tat displ
CCOC(=O)N1CCN(c2c(N3CCN(c4cc(C)ccc4C)CC3)c(=O)c2=O)CC1
    -2.4 | -0.14
COCCNC(=O)Nc1cn(C)c(=O)c2ccccc12
    . | -0.74
Cc1cc(C)c2oc(C(=O)N(Cc3ccccc3)C3CCS(=O)(=O)C3)cc(=O)c2c1 (stereo not drawn)
    1.6 | -0.48
Cc1ccn2c(=O)c(NC(=O)c3ccc(F)cc3)c(C)nc2c1
    . | 0.69
CC1=CC2=NC(=O)CC(C)(C(=O)O)N2C=C1 (stereo not drawn)
    -1.9 | .
CC(C)c1ccc(-c2c(NCc3ccc(N(C)C)cc3)c(=O)c2=O)cc1
    . | 0.38
COc1ccc(OCCN[C@H]2CS(=O)(=O)C[C@@H]2S(=O)(=O)c2ccc(F)c(C)c2)cc1
    -1.7 | -0.59
COc1cccc2c1cc1c(=O)[nH]nc(C)n12
    -0.24 | -0.87
Nc1nc(CN2CCN(c3ccccn3)CC2)nc(Nc2ccccc2)n1
    . | 2.1
CCn1nc(C)c(CCNS(=O)(=O)c2ccc(F)c(Cl)c2)c1C
    . | 0.55
COc1ccc(-n2c(/C=C/c3cn(C)c4ccccc34)nc3ccccc3c2=O)cc1
    -0.34 | 0.98
COc1ccc(-c2onc(C)c2C)cc1S(=O)(=O)N1CCc2ccccc21
    . | 1.1
O=C(NC1CC1)C1CCN(c2nnc(N3CCCCC3=O)s2)CC1
    . | 1.2
O=C(NCc1ccco1)C(=O)NCC(c1cccs1)S(=O)(=O)c1cccs1 (stereo not drawn)
    . | 1.3
CCOC(=O)/C(C#N)=C/c1ccccc1
    -1.7 | .
O=c1c(C=Nc2ccccc2)c(Nc2ccccc2)[nH]n1-c1ccccc1
    -5.2 | .
S=C1NCCN1CCOc1ccccc1
    -0.05 | .
CCC(=O)Nc1ccc2[nH]c(=O)sc2c1
    . | 0.81
COc1ccc(Cl)cc1S(=O)(=O)Nc1ccc2c(c1)oc(=O)n2C
    . | 0.34
c1ccc2cc3[nH]c(CN4CCCCC4)nc3cc2c1
    -0.63 | 0.77

Further structures follow.
Value order: CDC25B CDK2 inh | TAR Tat displ
S=c1[nH]nc2nc(-c3ccccc3)c(-c3ccccc3)nn12
    1.3 | .
CSc1cccc(N2C(=O)N(Cc3ccc(Cl)cc3)C3CS(=O)(=O)CC32)c1 (stereo not drawn)
    -0.95 | 0.2
Nc1ccc(Br)cc1C(O)c1ccccc1 (stereo not drawn)
    1.6 | 0.65
c1ccc2c(c1)CCN(Cc1csc3c1CCCC3)C2
    . | -0.68
CCOc1ccc(-c2nc(SCC(=O)NC(C)(C)C)n3[nH]c(=O)cc3n2)cc1
    . | 1.1
CCOC(=O)CCCCC(=O)c1[nH]c(=O)[nH]c1Cn1cnc2ccccc21
    -1.3 | -1
Cn1nc(-c2cccnc2)nc2c(=O)n(C)c(=O)nc1-2
    -3.1 | -5.6
COc1ccc(-c2nnc3ccc(SC(C)C)nn23)cc1
    -0.96 | .
Cc1nn(CCCC(=O)N2CCc3ccccc3C2)c(=O)c2cc3sccc3n12
    -1.2 | 0.96
Cc1ccc(-n2ccnc(SCC(=O)c3ccc(Cl)cc3)c2=O)cc1C
    . | 0.62
CC1CCN(c2ccc3nncn3n2)CC1
    -0.65 | 0.1
CC(CC(=O)O)CC(=O)Nc1ccccn1 (stereo not drawn)
    -0.05 | -0.44
CC(=O)N1c2ccc(S(=O)(=O)N3CCC(C(=O)Nc4nc(C)cs4)CC3)cc2CC1C (stereo not drawn)
    . | 0.74
Cc1ccc(-c2nc(CSc3nnc(C)n4c3cc3occc34)c(C)o2)cc1
    . | -7.3
O=C1C2CCCN2C(c2ccc(F)c(F)c2)N1c1cccc(Cl)c1 (stereo not drawn)
    1.9 | -0.2
COc1ccc(OC)c(C2CC(=O)Nc3cc(OC)c(OC)cc32)c1 (stereo not drawn)
    -1.5 | .
O=C(c1ccc(S(=O)(=O)NCc2cccs2)s1)N1CCCC1
    . | 0.32
COC(=O)c1cc2oc3ccccc3c2n1Cc1ccccc1F
    -2.3 | 0.69
FC(F)(F)c1ccc(-c2noc(-c3csnn3)n2)cc1
    0.39 | .
CCN(CC)c1ccc(N=C2C=CC(=O)c3ccccc32)c(C)c1
    0.52 | .

From PubChem BioAssay
